VDR inhibitor = Inhibitors of the vitamin D receptor (VDR): qHTS; Potency, µM, for the others: max response, negative = inhibition, most hits filed as inhibitors; Vitamin D3 receptor (Homo sapiens), P11473; hit rate 0.93% among 400,000; VDR-SRC2-3 peptide fluorescence polarization, 2 h; active = well fitted inhibition curve with a large enough effect; inconclusive = small, poorly fitted or top-dose-only effect, or another doubt; inactive = no such curve, though single readings can be large or run the other way; note: series mostly up to about 120 µM
Target sequence (P11473 whole entry, looked up): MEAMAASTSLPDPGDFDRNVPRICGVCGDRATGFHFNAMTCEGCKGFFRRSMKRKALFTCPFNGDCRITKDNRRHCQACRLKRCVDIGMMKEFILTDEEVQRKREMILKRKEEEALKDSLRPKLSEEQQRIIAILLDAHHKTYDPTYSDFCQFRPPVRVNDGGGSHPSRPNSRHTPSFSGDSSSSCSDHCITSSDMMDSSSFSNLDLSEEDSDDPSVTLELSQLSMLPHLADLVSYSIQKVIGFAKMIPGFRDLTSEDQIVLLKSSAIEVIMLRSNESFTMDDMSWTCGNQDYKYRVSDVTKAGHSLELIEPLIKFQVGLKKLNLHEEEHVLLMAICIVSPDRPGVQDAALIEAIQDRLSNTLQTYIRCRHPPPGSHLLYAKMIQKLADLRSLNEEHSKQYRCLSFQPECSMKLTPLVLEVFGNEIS
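Fluorescence polarization assay measuring small-molecule disruption of VDR binding to the coregulator peptide SRC2-3. Compounds were pin-transferred (23 nl) into the reagent mix and incubated 2 h at room temperature before reading.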
* marks the source's active call; other numbers are inactive results; u = inconclusive. % is set by controls: 0 for no effect and ±100 for the full control effect; potency is the fitted concentration of half-maximal effect.

SMILES	VDR inhibitor
CN(CC(=O)Nc1cccc(F)c1)C(=O)COc1cccc2c1OC(C)(C)C2	-6%
CC1CCCCC1NC(=O)COC(=O)c1ccc(N(C)C)cc1 (stereo not given)	12%
COc1cc(OC)c(C(=O)Nc2ccncc2)cc1OC	-5%
Cc1noc(C)c1C(=O)N1CCC2(CCCN(C(=O)NC(C)C)C2)CC1	7%
O=C(NCC(=O)N(c1cccnc1)C(C(=O)NC1CCCC1)c1cccs1)c1cccs1 (stereo not given)	-2%
Cc1cc(C)n2nc(SCC(=O)Nc3cccc(C(F)(F)F)c3)nc2n1	-9%
CCOC(=O)c1ccc(N2C(=O)CC(Sc3nc(O)c(CC)c(=O)[nH]3)C2=O)cc1 (stereo not given)	-7%
O=C(CN(C(=O)c1csnn1)c1cccc2c1CCCC2)NCc1ccccc1	4%
Cc1ccc(S(=O)(=O)N(C)C)cc1NC(=O)C1CCCN(C(=O)c2ccc(Cl)cc2)C1 (stereo not given)	u
CCOC(=O)C1=C(C)N(c2nonc2NC(C)=O)C(N)=C(C#N)C1c1ccccc1F (stereo not given)	7%
COc1ccc(S(=O)(=O)NCc2cccnc2)c2ccccc12	9%
S=C(NC1CCCCC1)N1CCOCCOCCN(C(=S)NC2CCCCC2)CCOCC1	-16%
O=C(N=c1nc2ccccn2s1)c1ccccc1	12%
C/C(=N/NC(=O)c1cc(-c2ccccc2)nc2c(Cl)cccc12)c1cccnc1	-17%
Cc1ccc(CNC(=O)c2ccc(NC(=O)N3CCSc4ncccc43)cc2)cc1	-10%
COCCN(C(=O)COC(=O)CSc1ccccc1)c1c(N)n(Cc2ccccc2)c(=O)[nH]c1=O	-3%
O=C(Nc1cccc(-c2cccc(Cl)c2)c1)C1CCN(Cc2ccc(CO)o2)CC1	13%
COc1ccc(/C=C(\NC(=O)c2ccccc2)C(=O)NC2CCS(=O)(=O)C2)cc1 (stereo not given)	-1%
Cn1nc(-c2ccc(Cl)cc2)cc1NC(=O)Nc1ccccc1	13%
c1ccc(-c2nnc(CN3CCCc4ccccc43)o2)cc1	-20%

A second format for 2 compounds above:
SMILES | VDR inhibitor
Cn1nc(-c2ccc(Cl)cc2)cc1NC(=O)Nc1ccccc1 | 13%
c1ccc(-c2nnc(CN3CCCc4ccccc43)o2)cc1 | -20%

(listing goes on)
SMILES	VDR inhibitor
N#Cc1nc(Cl)c(Cl)c(NN)c1Cl	-4%
Cc1ccc(-n2c(CNc3ccc(F)cc3)nnc2SCC(=O)N2CCCC2)cc1	12%
CC(=O)N1CC[C@@H]2CC(=O)CC[C@@H]21	7%
Oc1ccc(Cl)cc1CNCC1CCCO1 (stereo not given)	-6%
CCOC(=O)c1cnc(Nc2nc3ccccc3o2)nc1CSC(=S)N1CCCCC1	-28%
COC(=O)c1ccccc1NC(=S)N1CCOCC1	-16%
COC(=O)COc1ccc(=O)n(-c2ccccc2)n1	-1%
Cc1nc(SCc2ccc(Cl)c(Cl)c2)n[nH]1	-10%
O=C(Cn1c(=O)n(Cc2ccco2)c(=O)c2sc3ccccc3c21)Nc1ccccc1C(F)(F)F	-5%
COc1ccc(O)c(C(=O)c2cnn(S(=O)(=O)c3ccc(C)cc3)c2)c1	-7%
Cc1ccc(CNC(=O)CN(Cc2cccs2)C(=O)C2(C)CC(=O)N=C3C=CC=CN32)cc1 (stereo not given)	-11%
C=C1C(O)C[C@H]2C(=C)CCC3[C@H](OC(=O)[C@]3(O)CO)[C@@H]12 (stereo not given in full)	-12%
N#C/C(=C\Nc1ccc2cn[nH]c2c1)c1nc(-c2ccccc2)cs1	1%
O=CN1CCN(C(=O)c2ccccc2Cl)CC1	5%
O=C(NCc1cc(C(F)(F)F)cc(C(F)(F)F)c1)C1CC(c2cccc([N+](=O)[O-])c2)=NO1 (stereo not given)	23%
COc1ccc(-c2noc3c2-c2nc(-c4c(F)cccc4F)sc2CC3)cc1	-11%
CC(C)=CCC12Oc3cc(O)ccc3C1(O)Oc1cc3c(c(O)c1C2=O)C=CC(C)(C)O3 (stereo not given)	-18%
Cn1nnnc1SCCNCc1cccc2ccccc12	1%
COc1ccc(NC(=O)CCC(=O)c2cc(C)sc2C)cc1	-10%
COc1cc(CNc2ccc(S(N)(=O)=O)cc2)ccc1OCc1ccccc1F	9%

Reformatted: entries from further up.
canonical_smiles,VDR inhibitor
COC(=O)COc1ccc(=O)n(-c2ccccc2)n1,-1%
Cc1nc(SCc2ccc(Cl)c(Cl)c2)n[nH]1,-10%
O=C(Cn1c(=O)n(Cc2ccco2)c(=O)c2sc3ccccc3c21)Nc1ccccc1C(F)(F)F,-5%
COc1ccc(O)c(C(=O)c2cnn(S(=O)(=O)c3ccc(C)cc3)c2)c1,-7%

The list goes on.
SMILES	VDR inhibitor
C=CCNc1nc(Nc2ccccc2F)nc(OCC)n1	-1%
Clc1cccc(Nc2nc(-c3ccncc3)nc3ccccc23)c1	11%
COc1ccc(NC(=O)c2nnn(Cc3nc(-c4cc(OC)c(OC)c(OC)c4)oc3C)c2C)cc1	-24%
O=C1COc2ccccc2N1Cc1ccccc1Cl	29%
Cc1c(Cl)cccc1NC(=O)CCn1nc(C)c2c(C)n(-c3ccccc3)nc2c1=O	10%
Nc1ccnn1Cc1ccc(Br)s1	-20%
CCN(CC(=O)NCc1cccs1)C(=O)c1cc(S(=O)(=O)N2CCOCC2)ccc1C	-2%
CCOC(=O)C1CN(S(=O)(=O)c2ccc(C)cc2)CCN1S(=O)(=O)c1ccc(C)cc1 (stereo not given)	-8%
CCCCc1c(C)nc2c(-c3ccc(Cl)cc3)c(C)[nH]n2c1=O	10%
CCOC(=O)c1nnc(-c2ccccc2)nc1Sc1c(Cl)cccc1Cl	-9%
OCCOCCn1c(C(CO)Nc2nc(-c3ccccc3Br)cs2)nc2ccccc21 (stereo not given)	-6%
OB(O)c1ccc(B(O)O)cc1	-14%
CCCc1nc2ccccc2c(=O)n1CCc1ccccc1	10%
O=C(Cn1ncc2c3ccccc3n(Cc3ccccc3F)c2c1=O)NCCCc1ccccc1	9%
CC(NC(=O)c1ccccc1NC(=O)CN1CCc2ccccc2C1)c1ccccc1 (stereo not given)	-9%
COc1ccc(C(=O)CCN2CCN(c3ccccc3F)CC2)cc1	22µM*
COc1ccc(NC(=O)C2CCN(S(=O)(=O)c3c(C)noc3/C=C/c3ccco3)CC2)cc1	-9%
COc1ccc(OC)c(S(=O)(=O)N(C)CC(=O)N2CCOCC2)c1	16%
CCCOc1ccc(N2CC(C(=O)Nc3ccccn3)CC2=O)cc1 (stereo not given)	-2%
COc1cc(S(=O)(=O)Nc2ccc(C)cc2)ccc1NC(=O)c1ccncc1	-1%

Reformatted: entries from further up.
| Structure | VDR inhibitor |
| --- | --- |
| CCCCc1c(C)nc2c(-c3ccc(Cl)cc3)c(C)[nH]n2c1=O | 10% |
| CCOC(=O)C1CN(S(=O)(=O)c2ccc(C)cc2)CCN1S(=O)(=O)c1ccc(C)cc1 (stereo not given) | -8% |

(more compounds)
SMILES	VDR inhibitor
Cc1nc(-c2ccccc2)sc1-c1ccc(SCC(=O)Nc2ccccc2)nn1	-11%
Cc1cc(Cl)ccc1NC(=S)N1CCN(Cc2ccc3c(c2)OCO3)CC1	7%
C=C1CCN(C(CC(C)C)C(=O)Nc2nc3ccc(Cl)cc3s2)S(=O)(=O)c2ccccc21 (stereo not given)	-4%
Cc1cc(N/N=C/c2ccccc2[N+](=O)[O-])nc(-n2nc(C)cc2C)n1	-9%
C/C(=N\n1c(C)cc(C)c(C#N)c1=O)c1cccs1	-23%
CCOC(=O)C1CCCN(C(=O)c2cn(CC)c3ccc(S(=O)(=O)N(C)C)cc3c2=O)C1 (stereo not given)	7%
CC(=O)c1c(C)[nH]c(C(=O)NNC(=O)COc2ccc(Cl)cc2C)c1C	4%
Cc1ccc(SCc2nc(-c3ccc(C(=O)Nc4cc(C)ccc4C)cc3)oc2C)cc1	6%
Cc1nc2c(C)cccn2c(=O)c1NC(=O)COc1ccccc1	-3%
C/C(=N\NS(=O)(=O)c1ccc(C)cc1)c1ccc(C)s1	10%
CSc1ccc(Cl)c(C(=O)NNC(=O)c2csc(N3CCOCC3)n2)c1	-3%
O=C(O)/C=C/c1coc2ccccc2c1=O	-10%
Cc1ccc(NS(=O)(=O)c2cccc(C(=O)OCC(=O)NCc3ccco3)c2)cc1	27%
O=C(CNC(=O)c1ccc2c(c1)S(=O)(=O)N=C1CCCCCN12)Nc1ccc(F)c(F)c1	-3%
CC(=O)N1CCc2nc3sc(C(=O)Nc4ccc(Cl)cc4F)c(N)c3c(C(F)(F)F)c2C1	15%
CC(C)CC(NC(=O)c1ccc(Cl)cc1Cl)C(=O)O (stereo not given)	-4%
C/C(=N\NC(=O)c1ccc(CSc2nncn2C)cc1)c1ccc2ccccc2c1	-5%
COc1cc(C(=O)NCCOc2ccccc2C)c(Br)c(OC)c1OC	4%
O=C1CN(C(=O)COC(=O)CCS(=O)(=O)c2ccccc2Cl)c2ccccc2N1	-8%
CN(CCO)S(=O)(=O)c1ccc2c(c1)C(=O)c1cc(S(=O)(=O)N(C)CCO)ccc1-2	17%
CC1(C)CC(=O)C2=C(C1)N(c1ccc(F)cc1)C(N)=C(C#N)C2c1cccs1 (stereo not given)	2%
Cc1ccc(NS(=O)(=O)c2ccc3oc(=O)ccc3c2)cc1Cl	-18%
Nc1nonc1-n1nnc(C(=O)N/N=C/c2ccc(OCc3ccccc3F)cc2)c1CNc1ccccc1	-13%
N#Cc1cc2c(nc1SCc1cccnc1)CCC2	6%
CC(=O)c1ccc2c(c1)OCCOCCOCCOCCO2	8%
CCSc1nnc(NC(=O)c2nn(C(C)C)c(=O)c3ccccc23)s1	10%
O=C(NCc1cccs1)C1CCC(CNS(=O)(=O)c2ccccc2)CC1 (stereo not given)	-16%
CCn1cc(C(=O)NCc2ccccc2)c(=O)c2cc(F)c(N3CCN(C(=O)c4ccco4)CC3)cc21	14%
COc1ccc(N(Cc2nnc3n2CCCCC3)C(=O)Nc2cccc(C)c2)cc1Cl	-4%
Cc1cc(C)c(NC(=O)Nc2sc3nc4n(c(=O)c3c2C)CCC(C)CC4)c(C)c1 (stereo not given)	-8%
Cc1ccc(OCc2cc(C(=O)NCC(C)c3ccccc3)no2)cc1C (stereo not given)	2%
Cc1nc(C(=O)NNC(=O)c2cccc(Cl)c2)c(C(F)(F)F)o1	3%
Cc1cccc(N(C(=O)CCC(=O)Nc2cc(C)on2)C(C(=O)NC2CCCC2)c2ccc(C)o2)c1 (stereo not given)	18%
COc1ccc(-c2cn(-c3ccc(Br)cc3)c3[n+]2CCS3)cc1	-22%
COc1ccc2cc([C@@H](C)C(=O)O)ccc2c1	-27%
COCCNC(=O)c1ccccc1NS(=O)(=O)c1ccc(C)c([N+](=O)[O-])c1	10%
COc1ccc(NS(=O)(=O)c2ccc(-n3cccn3)cc2)cc1OC	-5%
CCOc1ccc(CCNC(=O)C2CCN(c3ncnc4c3nc3n4CCCCC3)CC2)cc1	2%
CCOc1ccc(/C=C/c2nc(C#N)c(N3CCCCCC3)o2)cc1	-8%
O=C(Cn1c(=O)nc(-c2ccccc2)c2cc(Cl)ccc21)NCc1ccc(Cl)cc1	-9%
CC12CCC(C(N)C1=O)C2(C)C (stereo not given)	6%
CCCC(CCC)C(=O)Nc1cccc(-c2cn3c(n2)SCC3)c1	-1%
O=C(Nc1ccc(Cl)cc1)c1cc(S(=O)(=O)NC2CCCCCC2)ccc1F	12%
Cc1ccc2nc(NC(=O)CN3CCN(c4ccccn4)CC3)sc2c1	-10%
COc1ccc(N2CCN(C(=O)c3cc4c(s3)CCCCC4)CC2)cc1	-18%
O=C(Cn1c(=O)n(Cc2cccs2)c(=O)c2cccnc21)Nc1ccccc1F	4%
Cc1ccc(CCNC(=O)c2ccc3c(c2)N(Cc2ccccc2)C(=O)c2ccccc2S3=O)cc1 (stereo not given)	4%
Cc1ccc(-c2nn(-c3ccccc3)cc2C2SCC(=O)N2Cc2ccccc2)o1 (stereo not given)	-25%
O=C(O)c1ccccc1-c1ccccc1C(=O)NCc1ccccc1Cl	-11%
Cc1ccn2cc(-c3cccc(NC(=O)C(C)C)c3)nc2c1	-14%
COc1ccc(S(=O)(=O)N2CCN(Cc3ccc4c(c3)OCO4)CC2)cc1F	12%
CC1CCN(C(=O)CCc2ccc(Oc3cc([N+](=O)[O-])cc([N+](=O)[O-])c3)cc2)CC1	-21%
COc1ccccc1OCc1nc2ccccc2s1	-21%
NC(=O)c1cnn(Cc2ccc(Cl)cc2)c1N	-12%
O=C(NC1CCCCC1)C(c1cccs1)N(C(=O)c1ccccn1)c1ccccc1 (stereo not given)	-1%
O=C(Nc1ccccc1Cl)c1sc2cccc(Cl)c2c1Cl	0%
COc1cc2c(cc1OC)C(C)N(C(=O)C1=NN(c3cccc(C)c3)C(=O)CC1)CC2 (stereo not given)	18%
Cc1cnc(NC(=O)CSc2nnc(-c3ccc(Cl)cc3Cl)n2N)s1	-22%

Shown as a hit in VDR inhibitor (from the list above):
SMILES	VDR inhibitor
COc1ccc(C(=O)CCN2CCN(c3ccccc3F)CC2)cc1	22µM*

Only part of the results is shown. The share of hits here may be higher or lower than overall.
